Screening data (PubChem)
A488 fluor: compound fluoresces in the A488 spectral region; max dye equivalency, M; 0.1% of 59,000 active; compound autofluorescence, A488 spectral region, dye equivalency; stronger effect = higher value; active = above 10 nM dye equivalent; inconclusive = 1 to 10 nM; inactive = 1 nM or less; about half of its hits are not listed in these tables;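 note: highest value over a series up to 38 µM; compound alone in buffer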
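Autofluorescence read at ex 480/em 540 nm after 15 min RT in 100 mM Tris pH 8.0; compound signal normalized to A488 standard series on each plate, reported as dye-equivalent concentration at each test concentration.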
AID923: qHTS Assay for Allosteric/Competitive Inhibitors of Caspase-1: Spectroscopic Profiling in AFC Spectral Region; compound fluorescence, AFC spectral region (405/520 nm); almost no hit is shown here; Potency, µM (doses to about 57.5 µM), inactives show top-dose fluorescence increase, most hits filed as activators; 1.1% of 75,000 active; AID 923, 2007; active = well fitted activation curve with a large enough effect; inconclusive = small, poorly fitted or top-dose-only effect;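 note: potency is the fitted concentration of half-maximal effect; 0% is about no effect; scaled to a free AFC standard on each plate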
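Baseline compound fluorescence (AFC region, 405 nm ex/520 nm em) taken from the intercept of kinetic reads with 50 nM caspase-1 and 5 uM Ac-WEHD-AFC; normalized to an on-plate AFC standard curve; compounds titrated up to 57 uM.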
A647 fluor: compound fluoresces in the A647 spectral region; 59,000 tested, under 10 active; AID 592; max dye-equivalent concentration, M; Compound fluorescence, A647 channel (570/671 nm), Tris buffer; active means above 1 µM dye equivalent; inconclusive means 0.1 to 1 µM; inactive means 0.1 µM or less;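 note: values scaled relative to a standard on each plate; highest value over a series up to 38 µM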
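Buffer was dispensed, compounds and Alexa 647 standards were pin-transferred, and plates sat 15 min at room temperature. Intensity at 570/671 nm was then converted to dye-equivalent concentration using the plate's A647 standard curve.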
TSHR agonist: TSH receptor (human) agonism; Potency, µM (highest dose often 57.1 µM), for inactives: at the highest dose activation, actives largely listed as activators; 0.48% of 73,000 active; AID 926; HEK293-CNG-TSHR cells (CNG channel as cAMP sensor), membrane potential dye, cAMP; P16473; active = well fitted activation curve of enough size with the parental cells flat; inconclusive = any curve in the parental cells; inactive = parental cells flat and receptor cells flat or falling; note: potency is the fitted concentration of half-maximal effect; % of control where 0% means no effect; weak receptor curves with flat parental cells got no call and are not listed
Target sequence (P16473 whole entry, looked up): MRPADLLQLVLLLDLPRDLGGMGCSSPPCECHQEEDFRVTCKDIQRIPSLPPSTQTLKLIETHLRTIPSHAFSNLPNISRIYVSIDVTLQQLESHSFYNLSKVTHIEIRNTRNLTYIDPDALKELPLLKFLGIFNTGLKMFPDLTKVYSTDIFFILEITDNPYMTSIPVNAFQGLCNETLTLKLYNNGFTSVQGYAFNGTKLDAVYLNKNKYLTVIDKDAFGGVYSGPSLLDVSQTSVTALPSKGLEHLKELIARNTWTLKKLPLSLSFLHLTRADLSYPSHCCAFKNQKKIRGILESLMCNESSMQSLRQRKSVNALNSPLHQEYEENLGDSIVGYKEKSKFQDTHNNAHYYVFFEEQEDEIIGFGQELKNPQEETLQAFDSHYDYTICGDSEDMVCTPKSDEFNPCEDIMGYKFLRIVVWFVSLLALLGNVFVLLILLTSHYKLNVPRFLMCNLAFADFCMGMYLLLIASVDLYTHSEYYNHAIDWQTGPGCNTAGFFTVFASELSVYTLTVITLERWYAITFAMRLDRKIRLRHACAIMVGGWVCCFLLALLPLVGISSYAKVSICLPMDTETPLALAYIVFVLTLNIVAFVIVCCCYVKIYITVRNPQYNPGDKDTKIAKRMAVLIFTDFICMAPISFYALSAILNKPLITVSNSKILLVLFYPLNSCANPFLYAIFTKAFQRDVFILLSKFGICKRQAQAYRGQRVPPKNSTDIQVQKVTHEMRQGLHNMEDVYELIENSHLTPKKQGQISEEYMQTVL
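cAMP rise detected as CNG-channel membrane depolarization by fluorescent dye (emission 590 nm), 30 min after compound, following 60 min dye loading containing 100 uM RO 20-1724 at room temperature. Cells: TSHR/CNG HEK 293, with parental CNG HEK 293 as control.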
Resorufin fluor: compound fluoresces in the resorufin spectral region; Compound fluorescence, resorufin region 547/598 nm, buffer; stronger effect = higher value; max dye-equivalent concentration, M; 0.04% of 59,000 active; AID 588; active = above 10 nM dye equivalent; inconclusive = 1 to 10 nM; inactive = 1 nM or less; a few of its hits are not listed in these tables; note: highest value over a series up to 38 µM
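Dye-equivalent concentration values derive from comparing each well's 547/598 nm fluorescence against resorufin standards included on every plate. Incubation was 15 min at room temperature in 100 mM Tris, pH 8.0.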
The depositor's hits bear a star; i = inactive; ? = inconclusive; nt = not tested or not shown; [ ] = another dose, or the depositor's remark.

SMILES	A488 fluor	AID923	A647 fluor	TSHR agonist	Resorufin fluor
COCC(=O)N1CCC2(CC1)CN(Cc1ccccc1OC)C2	i	0.8%	3e-08	-3%	i
CCN1CCN(CC(=O)n2c3c(c4ccccc42)CC(C)CC3)CC1 (centres undefined)	i	7.2%	1e-09	?	i
O=C(c1ccc2nc(N3CCCCC3)sc2c1)N1CCN(c2ccccn2)CC1	nt	2.8%	nt	7%	nt
COc1cc(CC(=O)Nc2nccs2)cc(OC)c1OC	i	-0.4%	5.8e-08	4%	i
COC(=O)C(NC(C)=O)(Nc1nc2ccc(S(C)(=O)=O)cc2s1)C(F)(F)F (centres undefined)	i	nt	1e-09	nt	i
COc1ccc(COC(=O)N/N=C2/C[C@@H](O)[C@@H](O)[C@@H]3[C@H]4C(=O)N(c5ccc(F)cc5F)C(=O)[C@@H]4CC[C@@H]23)cc1	nt	0.5%[11.5 µM]	nt	1%[11.4 µM]	nt
CC(C)OCP(=O)(c1ccccc1)c1ccccc1	nt	2.0%	nt	16%	nt
COC(=O)Nc1ccccc1C(=O)N1CCCCC1	i	0.5%	2.9e-09	0%	i
CCOC(=O)N1CCN(C(=O)c2cnn(-c3ccccc3)c2NC(=O)c2ccccc2F)CC1	nt	1.0%	nt	5%	nt
CCOc1cc2c(cc1OCC)C(c1cc(OC)c(O)c(OC)c1)NCC2 (centres undefined)	i	19%	3.7e-08	0%[11.4 µM]	i
CCCSc1nc2c(cnn2-c2ccc(C)cc2)c(=O)[nH]1	nt	1.9%	nt	-1%[11.4 µM]	nt
O=C(CC1SC2=NCCN2C1=O)Nc1ccc(Cl)cc1 (centres undefined)	i	0.9%	1e-09	0%	i
COc1cc2cc(C)c3nnc(SCC(N)=O)n3c2cc1OC	i	-0.3%	2e-08	-1%	i
CCOC(=O)c1[nH]c2cc3c(cc2c1CCCN1C(=O)c2ccccc2C1=O)OCCO3	i	0.1%	1e-09	3%	i
Cc1ccc(-c2noc(-c3cccs3)n2)cc1	nt	0.5%	nt	4%	nt
COC(=O)C1CCN(Cc2cc(=O)oc3cc(OC)ccc23)CC1	i	-0.2%	6.2e-09	7%	i
CCOC(=O)C1(C(F)(F)F)N=C(N(C)C)OC(N(C)C)=N1	i	-0.2%	3.7e-08	-5%[11.4 µM]	i
COc1cc(C(=O)OCC(=O)NC2CCCC2)cc(NC(=O)c2ccco2)c1OC	i	-0.1%	3.2e-08	nt	i
Cc1cnc(NC(=O)CSc2nnc(Cc3ccccc3)n2C)s1	i	1.7%	1e-09	3%	i
COc1ccc(Nc2ncnc3c2cnn3-c2ccccc2)cc1OC	nt	5.2%	nt	-28%	nt
CCN1C(=O)[C@H]2[C@H]3[C@H](O)[C@H](O)C/C(=N/OC[C@@H]4O[C@H](c5ccccc5)C=C[C@@H]4Oc4ccc(OC)cc4)[C@@H]3CC[C@@H]2C1=O	nt	-1.9%[11.5 µM]	nt	-1%[11.4 µM]	nt
O=C(Nc1ccc(N2CCOCC2)c(Cl)c1)c1cccc(F)c1	i	0.4%	1e-09	11%	i
Cc1cc2ncn(C3CC(=O)N(Cc4ccccc4)C3=O)c2cc1C (centres undefined)	i	0.1%	1e-09	3%	i
CC(C)OC(=O)c1ccc(N2C(=O)C3CC=CCC3C2=O)cc1 (centres undefined)	i	1.3%	3.8e-08	nt	i
CCc1cccc(NC(=O)CN(c2ccc(OC)cc2)S(=O)(=O)c2c(C)n[nH]c2C)c1	i	-0.5%	2e-09	-5%	i
Cc1c(NC(=O)CSc2nc3ccccc3n2C)c(=O)n(-c2ccccc2)n1C	nt	1.9%	nt	-2%	nt
Clc1ccc(CCNc2ncnc3nc[nH]c23)cc1	nt	-4.2%	nt	?	nt
Clc1ccc2c(c1)N=C(N1CCNCC1)c1ccccc1N2	nt	2.2%	nt	-14%	nt
Cc1ccnc(NC2c3ccccc3C(=O)N2Cc2ccccc2Cl)c1 (centres undefined)	nt	-2.0%	nt	-4%	nt
O=C(c1ccco1)N1CCN(C(=O)c2snc3ccc(Cl)cc23)CC1	i	0.2%	2.7e-08	1%	i
CCOC(=O)C1CCN(C(=O)c2ccc(OCC)c(OCC)c2)CC1	i	-0.7%	1.3e-08	4%	i
CCN1C(=O)c2ccccc2S(=O)(=O)c2ccc(C(=O)NCc3cccnc3)cc21	nt	5.2%	nt	-1%	nt
COc1ccc(CNC(=O)C2CCCN(S(=O)(=O)c3cc(C)ccc3OC)C2)cc1 (centres undefined)	i	-0.9%	4.6e-08	28%	i
COc1ccc(CCNC(=O)CSc2nnc(CNC(=O)c3cccs3)o2)cc1OC	i	0.1%	2.2e-08	-1%[11.4 µM]	i
CCOC(=O)c1ccc2[nH]c(C)cc(=O)c2c1	nt	2.7%	nt	-7%	nt
CCC(=O)Nc1cc(NC(=O)CSc2ncc(-c3ccc(F)cc3)n2Cc2ccco2)ccc1C	i	-3.0%	1.3e-08	?	i
CC(=O)Cc1nsc(NC(=O)c2ccc(Br)o2)n1	i	3.0%	4.2e-09	-1%	i
CN(C(=O)COc1nnc(-c2cccs2)c(-c2cccs2)n1)c1ccccc1	i	4.2%	1e-09	-11%	i
Cc1cc(CC(=O)O)c(C)cc1CC(=O)O	i	nt	?	nt	i
CC[C@@H](c1ccccc1)n1c(=O)n2n(c1=O)[C@H]1[C@H](O)[C@H]3O[C@@H]3/C(=N/OCC(C)C)[C@@H]1CC2	nt	-2.6%[11.5 µM]	nt	1%[11.4 µM]	nt
COc1ccccc1NC(=O)c1ccccc1SC	i	0.5%	2.4e-08	nt	i
Cc1ccc(-c2nnc(CSc3nnc(C)s3)o2)cc1	i	-2.0%	5.9e-08	2%	i
C=CCn1c(C)cc(C(=O)COC(=O)COc2ccccc2C#N)c1C	i	-0.3%	6.7e-09	?	i
N#Cc1nc(-c2ccc(OCc3ccccc3Cl)cc2)oc1NCCCn1ccnc1	i	0.2%	7.5e-09	-8%	i
CC(=O)c1sc(NC(=O)CN2C(=O)CCC2=O)nc1C	i	-0.3%	1.6e-08	-5%	i
CCCS(=O)(=O)NCCc1cc2ccc(OC)cc2[nH]c1=O	nt	-4.0%	nt	?	nt
Cc1nnc(SCC(=O)N2CCN(S(=O)(=O)c3ccccc3)CC2)n1Cc1ccccc1	i	0.1%	3.6e-09	8%	i
CCCCOC(=O)CSC1=C(C#N)C(c2ccccc2OC)C(C#N)C(=O)N1 (centres undefined)	i	nt	9.4e-08	nt	i
O=C(Nc1cnn(C23CC4CC(CC(C4)C2)C3)c1)c1cnn2c(C(F)(F)F)cc(-c3ccco3)nc12	i	2.7%	3.2e-08	-17%	i
COc1ccc(NC(=O)C23CCC(C)(C(=O)O2)C3(C)C)cc1 (centres undefined)	i	-2.2%	1.3e-09	1%	i
CCN(CC)CCSc1nc(O)c(C(C)C)c(=O)[nH]1	i	-0.2%	1e-09	0%	i
O=C(Cn1cc2c(n1)CCCCC2)NCCCN1CCOCC1	nt	3.9%	nt	12%	nt
Cc1oc2cc(OCC(=O)O)ccc2c(=O)c1Oc1ccccc1	i	2.1%	1e-09	0%[11.4 µM]	i
Cc1cc2c(=O)n(NC(N)=O)c(C)nc2s1	i	-1.0%	1.9e-08	-6%	i
CCCCn1cc(SCC(=O)O)c2ccccc21	i	-0.7%	1e-09	13%	i
CCCCc1nc2ccccc2c(=O)n1NC(=O)c1c(O)c2c(n(CC(C)C)c1=O)CCCC2	i	2.7%	1e-09	2%	i
Cn1c(NCc2ccco2)nc2c1c(=O)n(Cc1ccc(Br)cc1)c(=O)n2C	i	2.3%	1e-09	-27%	i
Cc1cc(C)n(-c2nnc3n2N=C(c2c[nH]c4ccccc24)CS3)n1	i	-1.3%	4.6e-09	25%	i
COC(=O)N1CCC2(CCN(C(=O)Nc3cccc(F)c3)CC2)CC1	i	-0.7%	2.8e-08	10%	i
COc1ccc2[nH]cc(CCNc3ccnc(-c4ccc5c(c4)OCO5)n3)c2c1	i	3.2%	1.5e-08	?	i

Profiles, looked up by structure.
Shown for Cc1nnc(SCC(=O)N2CCN(S(=O)(=O)c3ccccc3)CC2)n1Cc1ccccc1 → A488 fluor: i; AID923: 0.1%; A647 fluor: 3.6e-09; TSHR agonist: 8%; Resorufin fluor: i
Shown for CCCCc1nc2ccccc2c(=O)n1NC(=O)c1c(O)c2c(n(CC(C)C)c1=O)CCCC2 → A488 fluor: i; AID923: 2.7%; A647 fluor: 1e-09; TSHR agonist: 2%; Resorufin fluor: i

Further records
SMILES	A488 fluor	AID923	A647 fluor	TSHR agonist	Resorufin fluor
Cc1[nH]nc2c1C1(CCN(C(=O)c3ccccc3)CC1)C(C#N)=C(N)O2	i	0.5%	2e-08	-2%	i
CCOc1ccc(Cc2nc(C)c(CC(=O)N3CCCCC3)c(=O)[nH]2)cc1	i	-0.9%	1.9e-09	12%	i
CCCCn1c(SCC(=O)Nc2ccc3c(c2)OCO3)nc2c1c(=O)n(C)c(=O)n2C	i	0.1%	1e-09	9%	i
CCc1nc2oc3cc(OC)ccc3c(=O)c2c(=O)n1Cc1ccco1	i	0.3%	1e-09	15%	i
O=S(=O)(c1cccc2nsnc12)N1CCOCC1	i	0.3%	1e-09	-4%	i
CCN(Cc1ccccc1)Cc1c(F)cccc1F	nt	-0.3%	nt	17%	nt
COc1cccc(NC(=O)c2oc3ccccc3c2NC(=O)C2CC2)c1	i	0.4%	2.5e-08	?	i
COC(=O)c1ccc(NC(=O)CSc2nnc(COc3ccccc3)n2C)cc1	i	1.7%	1e-09	-1%	i
CCC(=O)Nc1c2c(nn1-c1ccc(C)cc1C)CSC2	i	-1.7%	7.4e-09	2%[11.4 µM]	i
COCC(C)NC(=O)NC1(C(F)(F)F)Oc2ccc(Cl)cc2O1 (centres undefined)	i	1.2%	3.4e-09	-11%	i
CCCCc1nc2c(c3c1CC(C)OC3)CN(CCOc1ccccc1)CC2 (centres undefined)	nt	-0.1%[11.5 µM]	nt	29%[11.4 µM]	nt
O=c1c2c3c(sc2n2cnnc2n1CCc1ccccc1)CCCC3	i	-1.3%	1e-09	48%	i
COC(=O)c1ccc(C(NC(=O)OCc2ccccc2)/C(F)=C/[C@@H](C)C(=O)N[C@@H](CO)Cc2ccccc2)cc1 (some centres undefined)	nt	2.3%	nt	11%	nt
COc1ccc(C/C(N)=N/n2cnnc2)cc1	nt	2.9%	nt	-8%	nt
Cc1ccccc1C(=O)NC1CCN(Cc2nnnn2CCc2ccccc2)CC1	i	2.0%	1e-09	4%	i

An excerpt from above in order of SMILES length, ascending:
SMILES	A488 fluor	AID923	A647 fluor	TSHR agonist	Resorufin fluor
O=c1c2c3c(sc2n2cnnc2n1CCc1ccccc1)CCCC3	i	-1.3%	1e-09	48%	i
CCc1nc2oc3cc(OC)ccc3c(=O)c2c(=O)n1Cc1ccco1	i	0.3%	1e-09	15%	i
COC(=O)c1ccc(C(NC(=O)OCc2ccccc2)/C(F)=C/[C@@H](C)C(=O)N[C@@H](CO)Cc2ccccc2)cc1 (some centres undefined)	nt	2.3%	nt	11%	nt

The results go on.
SMILES	A488 fluor	AID923	A647 fluor	TSHR agonist	Resorufin fluor
CCOc1ccc(-c2[nH]nc3c2C(c2ccc(O)cc2)C(C#N)=C(N)O3)cc1 (centres undefined)	i	-0.9%	7e-09	7%	i
COc1ccccc1Oc1coc2cc(O)ccc2c1=O	i	-1.6%	1.9e-08	1%	i
CCOc1cccc2cc(C(=O)N3CCc4ccccc4C3)c(=O)oc12	i	-2.3%	3.7e-08	15%	i
CN(CC(=O)Nc1ccncc1)S(=O)(=O)c1ccccc1	i	1.4%	9.4e-09	0%	i
COc1ccc(OC)c(C2=NOC(C(=O)Nc3cc(C)nn3-c3ccccc3)C2)c1 (centres undefined)	nt	-1.3%	nt	13%	nt
O=C1Nc2ccccc2N=C(c2ccccc2)C1N1CCOCC1 (centres undefined)	i	-0.2%	1e-09	-2%	i
CCc1ccc2[nH]c(=O)c(CN(CCN(CC)CC)C(=O)NC3CCCCC3)cc2c1	i	-0.2%	7e-09	?	i
Cc1nnc2ccc(N3CCCC3)nn12	i	-1.2%	3.2e-09	-4%	i

An excerpt; count on the stated rates, not on these rows.
